NPYLR7 ag – activates Aedes aegypti NPYLR7 receptor. HEK293T NPYLR7/Galpha15, GCaMP6s calcium fluorescence. activation, % at 10 µM. 270,000 tested, 0.15% active. AID 1259423; in the data active = activation above about 40%;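 also: 0% = vehicle and 100% = reference agonist at the receptor; some compounds past the cut are filed as inactive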
NPYLR7 ag max-min – second read-out of NPYLR7 ag, no call of its own (marks repeat the call); activation, %; measured here: Max-Min RFU normalised activation; some inactives read as strong as hits;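 span of the calcium signal over five minutes; 0% = vehicle and 100% = native peptide agonist; compound fluorescence can raise it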
* marks the source's active call; other numbers are inactive results; & = joins results of further samples.

Every second line gives: NPYLR7 ag | NPYLR7 ag max-min
O=C(NCc1cccnc1)C1CC=CCC1C(=O)N1CCc2ccccc2C1 (stereo not given)
    -4 | -13
Cc1ccc(S(=O)(=O)N2CCC(C(NS(=O)(=O)c3ccccc3)C(=O)NCc3ccc(F)cc3)CC2)cc1 (stereo not given)
    -2 | -2
CCOc1cc(CNc2ccc(CNc3ncn[nH]3)cc2)ccc1OCc1ccccc1
    7 | 2
CCN1C(=O)C2(SC(C)(C)CN2C(=O)c2cccs2)c2cc(F)ccc21 (stereo not given)
    -2 | 3
CCN(CC)S(=O)(=O)c1ccc(C(C)NC(=O)C=Cc2cc(OC)c3c(c2)OCCO3)cc1 (stereo not given)
    5 | 0
O=c1nc(SCc2ccccc2)c2c(n1CCCO)CCCC2
    -6 | -14
CCOC(=O)Cn1c(=NC(=O)C2=COCCO2)sc2cc(S(N)(=O)=O)ccc21
    4 | 3
Cc1[nH]cnc1-c1nccn1Cc1ccc2c(c1)n(C)c(=O)n2C
    -4 | -4
CC(C)NC(Cn1ccnc1)c1ccccc1 (stereo not given)
    3 | -2
Cn1c(-c2cccnc2)cc2cnc(Nc3cccc(F)c3)cc21
    -14 | -15
COCCNc1nc2c(S(=O)(=O)c3ccccc3)nnn2c2ccccc12
    4 | 4
CCC(=O)Nc1cc(-c2cn3cccnc3n2)ccc1C
    7 | 10
N=C(N)SCCS(=O)(=O)c1ccccc1
    -7 | -13
CCc1c(C)nc2c(-c3ccc(OC)c(OC)c3)c[nH]n2c1=O
    -3 | -7
COc1ccc(C(=O)Nc2cccc(C(C)C)c2)cc1
    4 | 2
COc1ccc(CC(=O)NNC(=O)c2cccn(Cc3ccc(F)cc3)c2=O)cc1
    -8 | -14
CN(Cc1ccccc1)c1ccc(NC(=O)N2CCCC(O)C2)cc1 (stereo not given)
    1 | 1
CCCNC(=O)NC(=O)CN1C(=O)NC2(CCCCC2)C1=O
    9 | 3
C=CCCC(O)CN(CCCOC)Cc1ccc(OC)c(OC)c1 (stereo not given)
    -5 | 1
CC1c2cccn2CCN1Cc1ccc(C(N)=O)cc1 (stereo not given)
    1 | 2

Remaining list, next part:
Every second line gives: NPYLR7 ag | NPYLR7 ag max-min
O=C(N[C@H]1CCC[C@@H]1OCc1ccccc1)c1ccc(-c2n[nH]c3c2COc2ccccc2-3)cc1
    2 | 15
COC(=O)CN(c1nc(C)cc(OC)n1)S(=O)(=O)c1ccccc1Cl
    2 | 0
COc1ccc(C(=O)CSc2nc(NC(C)=O)c(NC(=O)c3ccccc3)c(=O)[nH]2)cc1
    1 | 0
COc1ccc(-n2c(-c3ccccc3)c[n+]3ccccc23)cc1
    3 | 1
CC1CCN(C(=O)c2csc(COc3ccc4c(c3)OCO4)n2)CC1
    -4 | -3
COc1cccc(NC(=O)N2CCSC2c2cccc(F)c2)c1 (stereo not given)
    18 | 31
COC(c1ccccc1)c1nnc(CCC(=O)NC2Cc3ccccc3C2)o1 (stereo not given)
    -3&0 | -3&-3
COc1ccccc1-n1c(-c2ccc(Cl)cc2)cc(C(=O)N2CCOCC2)c1C
    12 | 12
CC(=O)NCCC1CCCCN1C(=O)NCc1ccccc1F (stereo not given)
    6 | 2
CCN1Cc2ccccc2CC1C(=O)NCc1cnc(C)cn1 (stereo not given)
    2 | 1
COc1nc2cn(CCc3ccccn3)c(O)c2cc1CNC(=O)c1ccoc1
    5 | -3
CCC(Oc1ccccc1)C(=O)N1CCC2(CC1)NCC(=O)N2CC(=O)OC (stereo not given)
    -1 | 14
N#CCc1ccc(-n2cnnn2)cc1
    -2 | -3
COc1ccccc1N1CCN(C(=O)CC(c2cccc(OC)c2OC)c2c[nH]c3ccccc23)CC1 (stereo not given)
    2 | 12
CC(c1ccccc1)N1CCN(C(=O)Nc2ccc(CC#N)cc2)CC1 (stereo not given)
    3 | 1
CCOC(=O)c1ccc(NC(=O)N(CCCOC)CC(=O)N(Cc2ccc(F)cc2)Cc2cccs2)cc1
    -3 | 12
O=C1c2cc(Br)ccc2S(=O)(=O)N1CCCn1ccnc1
    13 | 11
COCCN(Cc1cccc(OS(=O)(=O)c2ccc(F)cc2)c1)C(=O)c1cccs1
    1 | 2
CC(C)c1ccc(Cn2c(C3CC(=O)N(C(C)(C)C)C3)nc3ccccc32)cc1 (stereo not given)
    2 | -5
CCc1nc2ccc(C(=O)NCc3cccs3)cn2c1N(CC)C(C)=O
    -3 | -10

Record cards (already shown). Values in the order: NPYLR7 ag | NPYLR7 ag max-min
`CCOC(=O)c1ccc(NC(=O)N(CCCOC)CC(=O)N(Cc2ccc(F)cc2)Cc2cccs2)cc1` across the screens: -3 | 12
`COc1ccc(CC(=O)NNC(=O)c2cccn(Cc3ccc(F)cc3)c2=O)cc1` across the screens: -8 | -14

Following part
Every second line gives: NPYLR7 ag | NPYLR7 ag max-min
COc1ccccc1NC(=O)Nc1ccc(Nc2cc(OC(C)C)nc(C)n2)cc1
    4 | 1
CC(=O)c1c(C)[nH]c(C(=O)C(C)n2nnc(-c3cccs3)n2)c1C (stereo not given)
    6 | 4
CN(c1ccc(F)c(F)c1)S(=O)(=O)c1cccc2nonc12
    1 | -1
CCOc1cc(/C=C2/Oc3cc(O)ccc3C2=O)cc(Cl)c1OCC(=O)N(C)C
    150* | 123*
COc1ccc(CCNC(=O)N2CCN(c3ccc(NC(=O)c4ccco4)cn3)CC2)cc1
    -2 | -12
Cc1cc(S(=O)(=O)NCCCN2CCOCC2)c(C)cc1Br
    12 | 15
O=C1CC(c2ccccc2)CC2=Nc3ccccc3NC(c3ccccn3)C12 (stereo not given)
    2 | -1
CC(C)C(N)c1csc(Nc2ccc(C(=O)NCCCO)cn2)n1 (stereo not given)
    -2 | -8
COc1cccc(NC(=O)C(c2ccccc2)N2CCCC(C(=O)N3CCOCC3)C2)c1 (stereo not given)
    4 | 1
COc1ccccc1N1CCN(Cc2cnc(-c3ccco3)nc2)C(C)C1 (stereo not given)
    -1 | -4
COc1ccc(C(=O)N(Cc2c(-c3cccc(C)c3)noc2N2CCOCC2)CC2CCCO2)cc1 (stereo not given)
    -1 | 8
Cc1cccc(CSc2nc(Oc3ccccc3C)cc(C(F)(F)F)n2)c1
    1 | 4
CCS(=O)(=O)c1ccc(CC(=O)N(Cc2ccccn2)c2nc3c(C)cc(C)cc3s2)cc1
    -5 | -11
O=C1CSCN1CC(=O)N(Cc1nnc(-c2ccc(Cl)cc2)o1)C1CC1
    2 | 0
CN(Cc1ccc2ccccc2n1)C(=O)c1ccc(N2CCC[C@H]2CO)nc1
    2 | -1
COc1ccc(-c2nnc3ccc(SCC(=O)Nc4nc(C)cs4)nn23)cc1OC
    7 | 12
O=C(c1cc(=O)c(OCc2ccccc2)c[nH]1)N1CCN(c2ccccc2)CC1
    10 | 6
COc1cccc(OCc2ccc(Cn3nc(NC(=O)Nc4c(OC)cccc4OC)c4ccccc43)cc2)c1
    15 | 13
CSc1ncc(CN2CCC(CCC(=O)NCc3cccc(Cl)c3)CC2)cn1
    7 | 5
CC1(C(=O)Nc2ccc3c(c2)OCO3)CCN1Cc1cccc2c1OCO2 (stereo not given)
    9 | 0

(further entries)
Every second line gives: NPYLR7 ag | NPYLR7 ag max-min
Cc1nc(NCCn2nc3ccccn3c2=O)c2c(-c3ccccc3)csc2n1
    -4 | -9
Cc1cc(N2C(=O)c3oc4ccc(Cl)cc4c(=O)c3C2c2ccncc2)no1 (stereo not given)
    10 | 6
COc1ccc(NC(=O)C2CCN(C(=O)CCNC(=O)Nc3cccc(C#N)c3)CC2)cc1
    -5 | 12
Cc1ccc(NC(=O)CCN2C(=O)CSC2c2cccc(C(F)(F)F)c2)cc1 (stereo not given)
    17 | 26
O=C(N/N=C\c1coc2ccccc2c1=O)C12CC3CC(CC(C3)C1)C2
    -2 | -3
CCOC(=O)c1nn(-c2ccccc2)c(=O)cc1OCC(=O)Nc1ccc(OC)c(OC)c1
    10 | 5
COc1ccc(C=CC(=O)c2ccc(I)cc2)cc1
    6 | 10
Cc1ccc2nc(CNC(C)c3ccc(F)c(F)c3)cc(=O)n2c1 (stereo not given)
    -14 | -17
COc1cc(C)c(C)cc1S(=O)(=O)NCC1CCN(c2ncccn2)CC1
    -9 | -9
CCN(CC)c1ccc(CN(C(=O)c2cccs2)C2CC2)c(OS(C)(=O)=O)c1
    8 | 11
Cn1ccc(C(=O)Nc2ccccc2N2CCc3sccc3C2)cc1=O
    -3 | -4
CC1(C(=O)NS(=O)(=O)c2ccc(F)cc2F)CCN1C(=O)Cc1ccc(-c2ccccc2)cc1 (stereo not given)
    0 | 0
Cc1ccc(F)cc1C(=O)N1CCN(C(c2ccccc2)c2ccc(Cl)cc2)CC1 (stereo not given)
    15 | -4
CCOc1cc(S(=O)(=O)NCCCN2CCOCC2)ccc1F
    1 | 2
CC(C)CC(=O)N(Cc1cccc(F)c1)c1ccc(CC(=O)O)cc1
    3 | 1
CC(C)[C@H](NC(=O)c1ccco1)C(=O)NCC(F)(F)F
    0 | 11
NC1=NC(c2ccccc2Cl)n2c(nc3ccccc32)N1 (stereo not given)
    7 | 3
OCCn1nc2c3ccccc3nc-2n(-c2ccccc2)c1=S
    11 | 8
Cn1cc(C(=O)Nc2ccc(F)cc2)c2[nH]c(=O)n(-c3ccc(F)cc3)c(=O)c21
    1 | -2
COc1ccc(C)cc1NC(=O)CCc1c(C)nn(-c2nc(C)cc(=O)[nH]2)c1C
    8 | -1

Carrying on:
Every second line gives: NPYLR7 ag | NPYLR7 ag max-min
CC(C)Nc1ncc(CN2CCC(c3ccnc(-c4ccc5c(c4)OCO5)c3)C2)cn1 (stereo not given)
    26 | 12
O=C(/C=C\c1cccc(F)c1)NC1CCC(n2cc(C(=O)N3CCCC3)nn2)CC1 (stereo not given)
    3 | 1
CC1Cc2ccccc2N1Cc1cccc(C(N)=O)c1 (stereo not given)
    0 | -1
O=C(COC(=O)CC1CCCC1)Nc1ccc(OC(F)F)cc1
    -1 | -2
O=C(O)c1cccc(CC2CCN(C(=O)Cc3cccnc3)CC2)c1
    1 | 0
Cc1cnc(=O)[nH]c1SCC(=O)N1CCC(C)CC1
    1 | 0
Nc1nc2nc(-c3ccc(F)cc3)cc(C(F)(F)F)n2n1
    10 | 2
O=C(O)CCc1nc2ccccc2c2nc(=O)c(-c3ccccc3)nn12
    -4 | -6
CC(C)N(C(=O)CSc1ccc(S(=O)(=O)N2CCOCC2)cn1)c1ccccc1
    6 | 8
CNC(=O)[C@@H]1C[C@H](N)CN1C(=O)CCc1ccc(-c2ccc(Cl)cc2)[nH]1
    -7 | -6
CC(C)C(Sc1nncn1C(C)C)C(=O)NC(N)=O (stereo not given)
    0 | 16
COc1cccc(CNC(=O)CCC2CCCN(C(=O)c3cc(C4CC4)[nH]n3)C2)c1 (stereo not given)
    4 | 4
Cc1noc2ncc(C(=O)Nc3ccc[nH]c3=O)cc12
    6 | 6
CCC(O)(CC)c1ccc(CN(CCN2CCOCC2)Cc2ccc(OC)c(OC)c2)o1
    0 | 1
CN(CC(F)(F)F)C(=O)CNc1cnn(C)c(=O)c1Cl
    -6 | 43
CCOC(=O)c1nc2cc(Cl)c(Cl)cc2nc1N1CCCN(S(=O)(=O)c2cccc(C(F)(F)F)c2)CC1
    5 | 2
Cc1cc(NC(=O)c2ccc(S(=O)(=O)N(C)C)cc2)n(-c2nc(-c3ccc(F)cc3)cs2)n1
    -7 | -10
CN1CC23CN(C)CC2(C1)CN(Cc1cc2n(n1)CCNC2)C3 (stereo not given)
    19 | 12
O=C(CC1=NCCN1)c1ccccc1
    -7 | -13
Oc1ccc(/C=C/c2nc(-c3ccccc3O)n[nH]2)cc1
    -1 | 9

An excerpt from above in order of heavy-atom count, high to low.
Every second line gives: NPYLR7 ag | NPYLR7 ag max-min
CCOC(=O)c1nn(-c2ccccc2)c(=O)cc1OCC(=O)Nc1ccc(OC)c(OC)c1
    10 | 5
O=C1CC(c2ccccc2)CC2=Nc3ccccc3NC(c3ccccn3)C12 (stereo not given)
    2 | -1
CNC(=O)[C@@H]1C[C@H](N)CN1C(=O)CCc1ccc(-c2ccc(Cl)cc2)[nH]1
    -7 | -6
CC1CCN(C(=O)c2csc(COc3ccc4c(c3)OCO4)n2)CC1
    -4 | -3
CC(=O)NCCC1CCCCN1C(=O)NCc1ccccc1F (stereo not given)
    6 | 2
CCCNC(=O)NC(=O)CN1C(=O)NC2(CCCCC2)C1=O
    9 | 3

Additional compounds:
Every second line gives: NPYLR7 ag | NPYLR7 ag max-min
O=C(c1ccc2c(c1)OCO2)N1CCCC(OCc2cc(F)ccc2F)C1 (stereo not given)
    -7 | -7
Cn1c(CSc2ccccc2)nc2ccccc21
    1 | 2
COc1ccc(C(=O)N2CCC(n3nccc3NC(=O)CCc3ccccc3)CC2)o1
    2 | -1
CC(C)c1ccc(NS(=O)(=O)C2CC2)cc1
    0 | -4
COc1ccc2[nH]c3c(c2c1)CCN(C(=O)c1ccc(F)cc1C(F)(F)F)C3c1ccc(-c2ccccc2C(F)(F)F)o1 (stereo not given)
    21 | 10
Cc1ccc2occ(C(=O)c3ccccc3C)c(=O)c2c1
    25 | 14
C=CCn1c(SCC(=O)NC(=O)NCC)nc2sc3c(c2c1=O)CCC3
    29 | 17
Cc1ccc(CNC(=O)CN2C(=O)NC3(CCc4ccccc43)C2=O)cc1 (stereo not given)
    12 | 3
O=C(NCc1ccc2c(c1)OCO2)c1ccc(CSc2nnc(-c3ccncc3)n2-c2ccccc2F)cc1
    22 | 25
CCOC(=O)c1ccc(NC(=O)c2cc3cc([N+](=O)[O-])ccc3oc2=N)cc1
    -11 | -18
COc1cc(=O)n(-c2ccccc2C)nc1C(=O)N1CCN(c2cccc(Cl)c2)CC1
    2 | 2
CS(=O)(=O)c1ccc(NCC(=O)Nc2ccccn2)c(S(C)(=O)=O)c1
    3 | -8
COCCN(CCC(=O)N1CCN(c2ccccc2OC)CC1)c1nc(Cc2cccc(OC)c2)ns1
    10 | 12
O=C(c1cc(Cl)cc(Cl)c1)N1CCC(c2nc(-c3ccc4c(c3)OCO4)no2)CC1
    2 | -2
NC1=NC(=Nc2cccc(S(N)(=O)=O)c2)c2ccccc21
    10 | 15
CCOc1ccc(N(CC(=O)NCc2cccnc2)S(C)(=O)=O)cc1
    -5 | -11

Screening data (PubChem BioAssay)

An excerpt; rates above refer to the full screens.
